Beta apoptosis = blocks beta cell apoptosis | INS-1E cytokine-induced death, ATP luminescence, 48 h; percent of positive-control rescue, neutral wells zero | protection from apoptosis, % (test concentration not listed) | actives 0.8% (n = 300,000) | AID 435005;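 active means all replicates at 75% or more, or half of them and the mean; inconclusive means half reach 75% but not the mean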;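 further: 0% = cytokine-treated negative control wells and 100% = positive control rescue; higher means more ATP so stronger rescue from cytokine killing; wells of about 40 µL received 100 nL stock; the first replicate is given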
RanGTP-Impb inh = inhibitors of RanGTP-importin-beta interaction, primary screen, biochemical, FRET, CFP-Ran, YFP-importin-beta, homogeneous; cell-free CFP-Ran/YFP-importin-beta FRET ratio; inhibition, % (test concentration not listed); actives 1.1% (n = 300,000);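 active means most replicates above 15%; inconclusive means exactly half above 15%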;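 further: 0% = DMSO wells and 100% = Ran loaded with GDP instead of GTP; wells of about 40 µL received 100 nL stock; the first replicate is given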
rRNA inh HTS = inhibitors of bacterial rRNA selective over humanized ribosomes. actives 1.6% (n = 350,000). E. coli WT GFP vs humanized-ribosome RFP mutants, fluorescence, 24 h; stronger effect = lower value; DMSO median 0, no signal -100. GFP signal change (wild-type ribosome), % (no concentration beside the values);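 active means significant combined selectivity score with lowered wild-type GFP, culture density cut under 30%, mutant RFP and density less affected; inactive means any of these conditions unmet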; further: one replicate is shown; some compounds called inactive have numbers as strong as hits
T cruzi repl = blocks replication of Trypanosoma cruzi; T. cruzi beta-gal in NIH3T3, luminescence, 90 h; inhibition, % (no concentration beside the values); actives 1.4% (n = 300,000);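 active means mean inhibition across valid replicates above about 55%, limit read from the data; inconclusive means mean below that limit but half or more replicates reach it; inactive means mean below it, under half of replicates reach it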;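 further: signal also drops with host cell toxicity which is not excluded here; 0% = plate median of DMSO wells and 100% = zero luminescence signal; higher percent means less beta-gal luminescence so fewer parasites; stock transfer was 50 nL into about 50 µL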
Vif TR-FRET = inhibitors of Vif binding to APOBEC3G peptide, primary screen, biochemical, TR-FRET, GST-Vif 1-94, biotin-A3G peptide, dose response retest (AID 1117319). actives 0.57% (n = 260,000). one-dose inhibition, %; IC50 in µM for titrated hits. TR-FRET GST-Vif / biotin-A3G peptide binding; higher % means a stronger effect; test concentration not given here; strong numbers were not always called active;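 active means above the screen mean plus three standard deviations and confirmed in dose response; inconclusive means results disagree or hit not tested in dose response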;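 further: Vif residues 1-94 fused to GST binding biotinylated APOBEC3G peptide 110-148; 0% = full assay without inhibitor and 100% = GST in place of GST-Vif; retest series ran down from 100 µM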
Bfl-1 A1 inh = inhibitors of the anti-apoptotic protein A1, read as caspase activation; MEF A1-2A-BIM cells, Caspase-Glo 3/7 luminescence, 3 h; percent of clofoctol response, vehicle zero; caspase activation, % (test concentration not listed); actives 0.066% (n = 330,000); AID 2462;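 active means over half of replicate activation scores above 10%, or exactly half above 10 with the replicate mean above 10; inconclusive means replicate mean below 10 yet half the replicates above 10; inactive means over half of replicates below 10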;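 further: wells of about 30 µL received 50 nL stock; many hits fall short of the cut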
AF4-AF9 inh = MLL-AF4/AF9 protein interaction inhibition; actives 0.47% (n = 350,000); AID 651704; inhibition, % at 10 µM; AlphaScreen, biotin-AF4 peptide binding to FLAG-AF9;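 active means every replicate reaching a set inhibition limit, whatever the replicate mean, cut at about 25% in these data; inconclusive means mean inhibition reaches that limit but some replicates miss it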;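 further: 0% = plate neutral control median and 100% = total signal loss; the record names both 10 and 1 µM as test concentration; the first replicate is given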
Target sequence (P42568 whole entry, looked up): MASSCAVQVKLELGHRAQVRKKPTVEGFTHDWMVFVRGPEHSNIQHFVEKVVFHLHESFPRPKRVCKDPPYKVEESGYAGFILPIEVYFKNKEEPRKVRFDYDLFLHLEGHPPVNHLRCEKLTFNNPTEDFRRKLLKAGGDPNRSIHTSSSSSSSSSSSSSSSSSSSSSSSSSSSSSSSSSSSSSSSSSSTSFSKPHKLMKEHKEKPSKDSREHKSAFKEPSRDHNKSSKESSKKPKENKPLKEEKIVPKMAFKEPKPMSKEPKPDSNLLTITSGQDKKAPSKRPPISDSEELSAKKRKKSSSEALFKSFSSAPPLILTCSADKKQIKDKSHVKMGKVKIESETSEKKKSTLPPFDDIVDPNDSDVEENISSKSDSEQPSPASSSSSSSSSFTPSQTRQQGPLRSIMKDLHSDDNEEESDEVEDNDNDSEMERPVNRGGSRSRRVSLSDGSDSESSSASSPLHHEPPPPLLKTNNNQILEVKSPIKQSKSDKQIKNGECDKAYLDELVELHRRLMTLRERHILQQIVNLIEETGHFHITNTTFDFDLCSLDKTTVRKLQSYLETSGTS
Calb FLC = C. albicans growth modulation with fluconazole; C. albicans CaCi-2 (fluconazole-resistant clinical isolate) + fluconazole, Alamar Blue growth, 48 h; growth inhibition, % (concentration not given with the values); actives 0.57% (n = 300,000); AID 1979;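 active means most replicates above 75%; inconclusive means exactly half above 75%; inactive means most below 75%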;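 further: all wells also contain fluconazole at 8 µg/ml as a sub-toxic cotreatment; 0% = median of DMSO wells and 100% = median of geldanamycin control wells; wells of about 8 µL received 7.5 nL stock; the first replicate is given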
rRNA inh HTS OD600 = second read-out of rRNA inh HTS, no call of its own (marks repeat the call); OD600 change, %; measured here: OD600 growth;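 optical density of the mix in the first replicate; 0 = DMSO median and -100 = no signal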
rRNA inh HTS RFP = recorded beside rRNA inh HTS, whose call it bears; RFP signal change, %; measured here: RFP humanized mutant strains;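 first replicate; 0 = DMSO median and -100 = no signal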
* hit, by the source's call; ? = inconclusive; . = no result given.

Molecule | Beta apoptosis | RanGTP-Impb inh | rRNA inh HTS | rRNA inh HTS OD600 | rRNA inh HTS RFP | T cruzi repl | Vif TR-FRET | Bfl-1 A1 inh | AF4-AF9 inh | Calb FLC
O=[N+]([O-])c1ccc(N2CCN(S(=O)(=O)c3cnc[nH]3)CC2)cc1 | 1 | -0.2 | 1 | 6 | -2.3 | -8 | 2% | 0.2 | 1.6 | -1
CC(=O)C1=C(C)N(CC2CC2)C(=O)N[C@H]1c1ccc(Br)cc1 | -2 | 2.1 | -7 | -5 | -0.7 | -1 | -7% | 0.2 | -5.4 | 4
CCCCNC(=O)c1ccc2c(c1)ncn2C1CCCCC1 | -10 | -0.4 | . | . | . | -3 | 23% | 0.0 | . | -3
COc1ccc(C(=O)N2CCN(CCNC(=O)C(=O)Nc3ccc(F)cc3)CC2)cc1OC | -4 | -10 | . | . | . | -7 | 3% | -0.2 | 3.1 | -13
CCn1c(SCC(=O)n2c(C)c(C)c3ccccc32)nnc1-c1ccco1 | -9 | 3.0 | . | . | . | -20 | >100µM* | 0.5 | . | 25
COc1cc(C2C(C#N)=C(N)Oc3cc4c(cc32)OCO4)cc(OC)c1OC (stereo unspecified) | 64 | 4.6 | 5 | -8 | 0.1 | 25 | 1% | 0.9 | -2.6 | 3
COc1ncccc1-c1nnn(-c2ccc(C)cc2)n1 | . | 0.8 | -5 | 2 | -2.2 | -4 | 5% | 1.2 | 1.5 | -3
O=C1CCCC2=C1C(c1ccccc1)CC(=O)N2c1ccc(F)cc1F (stereo unspecified) | -6 | -0.1 | 0 | 0 | 0.4 | -4 | 5% | 0.5 | -0.5 | -10
CCN(C(=O)CN1C(=O)NC(c2ccccc2)(c2ccccc2)C1=O)c1ccccc1 | -3 | 0.7 | 1 | 10 | -0.1 | 15 | . | 2.5 | 38* | 22
COC(=O)c1cc(C(=O)OC)n(Cc2ccc(Cl)cc2Cl)n1 | 0 | -7.8 | . | . | . | 2 | -6% | -0.4 | . | 28
CCc1cc(C(=O)c2ccc(OC)cc2)c(NC(=O)CCC(=O)O)s1 | 0 | ? | -42* | -7.1* | -8.9* | -13 | 0% | -0.6 | -7.4 | 29
CCCc1nc(N)c(C#N)c(N)c1C#N | -4 | -1.9 | . | . | . | 6 | 0% | 0.0 | . | -4
COc1ccc(C(=O)Nc2cc3c(cc2N2CCOCC2)n(C)c(=O)n3C)cc1OC | 1 | -1.2 | . | . | . | -25 | -8% | 0.2 | . | 7
N#CC1=C(SCC(=O)NCc2ccccc2)NC(=O)CC1c1ccco1 (stereo unspecified) | 4 | 2.5 | . | . | . | 12 | 8% | -0.2 | . | -4
CN(C)c1cc[n+](CC[n+]2ccc(N(C)C)cc2)cc1 | -10 | 1.2 | 7 | 4 | -1.9 | -23 | . | 0.8 | -0.2 | -3
C=CCOc1ccc(/C=C\c2nc(O)c([N+](=O)[O-])c(=O)[nH]2)cc1OC | -4 | -0.5 | . | . | . | -1 | . | 1.7 | . | -7
O=C(Cn1nc(CNc2ccc(Cl)cc2)[n+]2c1CCCCC2)c1ccc(Br)cc1 | -1 | 0.2 | . | . | . | 32 | . | -0.3 | . | 0
CCCCN(CC)C(=O)C1CCC(CNS(=O)(=O)c2cccc3nsnc23)CC1 (stereo unspecified) | 0 | 0.7 | -7 | -21 | 0.9 | 7 | . | 1.5 | -1.2 | 0
CC1(C)OC(=O)N(c2ccccc2)C12C=Cc1c(ccc3ccccc13)O2 (stereo unspecified) | 8 | 2.6 | . | . | . | 15 | -8% | -0.2 | . | 5
CNC(=O)Nc1cccc(C(F)(F)F)c1 | 0 | ? | . | . | . | -9 | 14% | -1.1 | . | 40
O=C(NC1CCCCC1)c1cccc2c1C(=O)c1ccc(N3CCCC3)cc1S2(=O)=O | 0 | . | 12 | 3 | 2.2 | . | . | 0.6 | 0.0 | .
O=C(CSc1nc2ccccc2c(=O)n1CCCN1CCOCC1)NCCc1ccccc1 | 2 | . | 5 | -2 | 4.7 | . | . | -0.9 | -0.8 | .
COc1cc(NC(=O)Cc2cccs2)cc(OC)c1 | 1 | 3.1 | . | . | . | -5 | 1% | 1.6 | . | .
COC(=O)c1cc(Br)c(=O)n(CCN2CCCC2)c1 | -4 | 4.3 | . | . | . | -4 | 6% | 1.9 | . | 9
CCCCn1nnnc1SCC(=O)NC1CCCCC1 | 0 | -0.6 | 4 | 3 | -2.6 | -2 | . | -0.2 | 0.4 | 4
O=C(NCc1ccncc1)/C(=C/c1cccc([N+](=O)[O-])c1)NC(=O)c1ccccc1 | -4 | 3.5 | 4 | 5 | -0.9 | -6 | 16% | -0.8 | -3.1 | -4
CC1CN(C(=O)CCc2ccccc2)C(C)CN1C(=O)CCc1ccccc1 (stereo unspecified) | -3 | -6.4 | . | . | . | 10 | 23% | -0.5 | . | -1
Cc1nc(NC(=O)CSc2nncs2)c(Cl)cc1Cl | -3 | 1.3 | 4 | 0 | -6.2 | 4 | . | -1.0 | -0.9 | -1
CCC(C)[C@H](NC(=O)NCc1ccc(S(N)(=O)=O)cc1)C(=O)OC (stereo partly specified) | -2 | 2.0 | 10 | 10 | -0.4 | -2 | -7% | -0.2 | -13 | 2
Cc1cnnn1-c1ccc(C(=O)CCl)cc1 | -4 | -0.6 | . | . | . | -4 | -11% | -0.1 | . | 0
COc1cccc(C(=O)Nc2ccc(C(=O)O)cc2)c1 | . | -8.5 | . | . | . | -2 | -8% | -8.3 | . | 1
N=c1c(C(=O)NCC2CCCO2)cc2c(=O)n3ccccc3nc2n1Cc1ccc(F)cc1 (stereo unspecified) | 2 | 179* | 7 | 13 | -3.1 | 7 | 2% | 1.7 | -2.8 | 0
O=C(O)C1CCC(Cn2c(SCc3cc(=O)n4cc(Cl)ccc4n3)nc3ccsc3c2=O)CC1 (stereo unspecified) | 3 | -4.6 | . | . | . | -15 | 0% | 0.2 | -1.1 | -25
O=C(Nc1nc2ccccc2[nH]1)c1cccc(F)c1 | . | -0.6 | -18 | -23 | -1.7 | 6 | . | -9.2 | 6.5 | -5
O=C1C2CC=C(Cl)CC2C(=O)N1CC1OCCc2ccccc21 (stereo unspecified) | -2 | -2.3 | . | . | . | 5 | 2% | -0.1 | . | -4
COc1cccc(NC(=O)CNC(=O)c2cccs2)c1 | -3 | 4.0 | . | . | . | 3 | 9% | -1.5 | . | -3
C=CCSc1nc(C)c(CCCC)c(=O)[nH]1 | -3 | 0.4 | . | . | . | 10 | 2% | -0.7 | -4.0 | 28
CC1(C)Oc2ccc3ccc(=O)oc3c2[C@@H](O)[C@H]1O | -3 | . | 12 | 13 | -0.5 | . | . | 0.7 | -0.1 | .
CCOc1ccc(NC(=O)CC2C(=O)N(c3ccccc3)C(=O)N2Cc2ccccn2)cc1 (stereo unspecified) | -4 | ? | . | . | . | -7 | 3% | -0.3 | . | -13
CCCc1cc(=O)[nH]c(SCC(=O)N(C)CC(=O)Nc2ccccc2CC)n1 | . | 4.6 | . | . | . | -9 | -1% | 0.9 | . | 2
COC(=O)/C=C(\C)NC(=O)c1ccc(F)cc1 | -2 | -3.1 | . | . | . | -7 | 2% | 0.9 | . | 4
Cc1ccc(CNC(=O)COC(=O)CSc2cc(C)c(Br)cc2C)cc1 | -7 | -1.3 | . | . | . | -19 | 3% | 0.6 | . | 25
COCc1nnc(NC(=O)c2ccccc2[N+](=O)[O-])s1 | -1 | 0.4 | . | . | . | -6 | 19% | 0.7 | . | 38
CCOc1ccc(S(=O)(=O)NCCC(=O)NCC(c2cccs2)N(C)C)cc1 (stereo unspecified) | 1 | 1.0 | 6 | -2 | 0.2 | 0 | -5% | -0.1 | 2.5 | 4
Nc1ccc(-n2nc(C(F)(F)F)cc2C(F)(F)F)cc1 | -10 | 2.9 | -3 | 4 | -1.3 | -6 | . | 1.2 | . | -4
COc1cc(/C=N/NC(=O)C(=O)NCc2cccnc2)cc(OC)c1OC | -1 | 1.0 | . | . | . | -10 | 16% | 0.5 | . | -31
O=C(Nc1nnc(-c2ccco2)o1)c1ccc(Cl)cc1 | 2 | 0.7 | 8 | 6 | 3.6 | 51 | -11% | -2.1 | 0.4 | 102*
Cc1cc(C)c(C(=O)NCC2CCCO2)c(C)c1C(=O)NCC1CCCO1 (stereo unspecified) | -1 | -3.1 | 10 | 17 | -0.1 | 0 | -2% | -0.4 | -1.0 | 2
CCOC(=O)c1nn(-c2ccc(F)cc2)c2nc(CC(C)C)c(C#N)c(=O)n12 | 4 | -2.3 | . | . | . | -6 | -8% | 0.1 | . | 39
COC(=O)c1cccc(NS(=O)(=O)c2ccc(NC(C)=O)cc2)c1C | 7 | -1.6 | . | . | . | -10 | 2% | -0.8 | . | ?

Additional records follow:
Molecule | Beta apoptosis | RanGTP-Impb inh | rRNA inh HTS | rRNA inh HTS OD600 | rRNA inh HTS RFP | T cruzi repl | Vif TR-FRET | Bfl-1 A1 inh | AF4-AF9 inh | Calb FLC
O=C(Cn1cnc2ccccc2c1=O)OCC(=O)c1ccc2c(c1)OCCO2 | -1 | ? | . | . | . | -12 | -13% | -1.3 | . | -13
CC(C)(C)NC(=O)COc1coc(CN2CCN(Cc3ccccc3)CC2)cc1=O | . | 1.0 | 7 | 9 | -4.2 | 10 | . | 0.6 | -3.4 | 0
CC(C)OCC(O)CN1CCN(CCN2C(=O)c3cccc4cccc(c34)C2=O)CC1 (stereo unspecified) | 12 | 4.5 | -2 | -9 | -1.4 | 23 | . | 0.0 | 1.6 | -1
COc1ccc(C(C(=O)NC(C)(C)C)N(Cc2ccccc2)C(=O)CCC(=O)Nc2cc(C)on2)cc1 (stereo unspecified) | 3 | -0.7 | 7 | -11 | 0.2 | 3 | -5% | 0.2 | 1.8 | 13
COc1cccc(NC(=O)NCCCCc2ccccc2)c1 | -5 | 0.0 | -15 | -49 | 11 | 8 | . | -3.2 | -2.1 | 10
COc1cccc(CNS(=O)(=O)c2c(C)nc3sccn3c2=O)c1 | 1 | -6.7 | 1 | -1 | -4.1 | -6 | . | -0.2 | 1.1 | -15
CC(=O)n1cc([C@H]2C=C(C(=O)N3CCN(Cc4ccccc4)CC3)O[C@@H](OCCCCO)C2)c2ccccc21 | -11 | 1.0 | . | . | . | 32 | . | -0.4 | 3.4 | 7
Cc1cc(COc2ccccc2)oc1C(=O)O | 4 | 2.3 | 3 | 13 | 0.0 | -10 | . | -5.9 | -3.6 | -2
CSc1ccccc1OCc1cc(C(=O)NC(C)CCn2cccn2)no1 (stereo unspecified) | 6 | 1.9 | -12 | -14 | -2.8 | -4 | . | 0.3 | 0.0 | 10
CC(C)CCNC(=O)c1ccccc1SCC(=O)NC1CCCCCCC1 | -3 | . | -35 | -69 | 1.5 | . | -1% | 0.4 | -0.1 | .

A portion of the library. The share of hits here may be higher or lower than overall.
